Assay outcomes from PubChem.
GIV Gai3 FP – inhibitors of GIV GBA-motif binding to rat Galpha-i3; P08753; Galpha-i3/FITC-GIV peptide fluorescence polarization, 90 min; hits give low values; scaled: aluminum fluoride 0%, vehicle 100%; percent of control (FP), % (test concentration not listed); 0.42% of 210,000 active; AID 1224905;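 active = replicate mean at 85% of control or lower, very high polarization wells dropped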;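 also: wells of about 15 µL received 100 nL stock; the first replicate is given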
Target sequence (P08753 whole entry, looked up): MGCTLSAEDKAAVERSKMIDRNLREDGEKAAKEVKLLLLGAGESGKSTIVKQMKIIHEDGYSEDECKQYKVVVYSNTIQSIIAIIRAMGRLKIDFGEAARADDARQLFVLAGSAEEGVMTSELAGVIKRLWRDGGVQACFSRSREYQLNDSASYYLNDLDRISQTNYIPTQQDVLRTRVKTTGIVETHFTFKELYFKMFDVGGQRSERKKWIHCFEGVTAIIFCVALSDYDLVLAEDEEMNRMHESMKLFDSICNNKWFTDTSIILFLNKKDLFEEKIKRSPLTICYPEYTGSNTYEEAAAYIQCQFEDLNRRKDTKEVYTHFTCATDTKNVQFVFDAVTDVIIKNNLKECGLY
HCMV UL50-53 inh – inhibitors of HCMV UL50-UL53 nuclear egress complex interaction; 0.15% of 190,000 active; HTRF UL50-UL53 interaction, normalized percent inhibition; inhibition, % (test concentration not listed);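 active = both replicates at 50% or more, plus weaker picks with an unusually low signal ratio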;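 also: stock transfer was 100 nL into about 20 µL; 0% = negative control wells and 100% = wells with untagged competitor protein; inactives centre near -12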
Sa growth inh – S. aureus growth inhibition | relative growth, % (concentration not given with the values) | 0.53% of 170,000 active | S. aureus RN4220 growth, OD600, 20 h, 42 °C; hits give low values;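 active = growth at 42 °C up to 50% and 20 or more points under that at 30 °C, or under 10% at both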;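 also: 300 nL library stock went into each well; scaled to the means of positive and negative controls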
Sa growth inh second temp – second read-out of Sa growth inh, no call of its own (marks repeat the call); relative growth, %; measured here: growth at 30 °C;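 optical density after 20 h as mean of two plates; 100% = untreated growth and lower means inhibition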
The depositor's hits bear a star; nt = no result given; & = joins results of further samples.

[1] CCc1c(C)nc2[nH]nc(NC(=O)C(F)(F)F)n2c1=O
[2] CCCc1nc(C)c2c(=O)[nH]c(-c3cc(S(=O)(=O)N4CCN(CC)CC4)ccc3OCC)nn12
[3] O=C(Cn1ccn(-c2ccc(F)cc2)c(=O)c1=O)Nc1ccccc1
[4] CCN(CC)c1ccc2nnc(CCC(=O)N(CC)c3ccccc3)n2n1
[5] CC(C)c1cccc(C(C)C)c1NC(=O)c1ccncc1
[6] COCCn1nnc2cc(S(=O)(=O)N3CCCCC3C(=O)Nc3cccc(C)c3C)ccc21 (stereo unspecified)
[7] c1nc(NCCN2CCOCC2)c2nc3n(c2n1)CCCCC3
[8] C=C(C1CC1)N(Cc1ccccc1)C(=O)c1cccc(F)c1
[9] CN(C)c1nc(N)nc(C2CCCN2S(=O)(=O)c2ccc3ccccc3c2)n1 (stereo unspecified)
[10] Cn1c(COc2ccccc2)nnc1SCC(=O)N1CCc2ccccc21
compound no.	1	2	3	4	5	6	7	8	9	10
GIV Gai3 FP	96	104	104	100	99	109	100	97	nt	109
HCMV UL50-53 inh	-23	-8&-30&19&-84	-42	10	-10	-12	-14	39	-4	-29
Sa growth inh	102	92&80&93	86	104	99	nt	88	97	105	106
Sa growth inh second temp	104	94&85&92	82	99	82	nt	95	105	99	98

[11] CCOC(=O)c1nc(C)sc1-c1ccnn1C(=O)c1cccc(Cl)c1
[12] COc1cc2c(cc1OC)C1(CCCC1)CN(C(=O)c1cc(Br)ccc1OC)C2
[13] CC(=O)Oc1cc(C(C)C)c(OCCN(C)C)cc1C
[14] C=CCN=C1S/C(=C\N(C)C)C(=O)N1S(=O)(=O)c1ccc(C)cc1
[15] O=C1CC(c2nc(-c3ccccc3)no2)CN1c1ccccc1 (stereo unspecified)
[16] N#Cc1cnc(SCC(=O)NC(=O)Nc2ccccc2)nc1N
[17] COc1ccc(N(C)C(=O)Cc2c(C(=O)O)n(C)c3ccccc23)c(OC)c1
[18] CSc1nc(-n2nc(C)cc2C)nc(-c2ccco2)c1C#N
[19] COc1ccc2oc(-c3ccc(C)c(NC(=O)c4cccnc4)c3)nc2c1
[20] O=C(Nc1ccccc1I)C1(S(=O)(=O)c2ccccc2)CCCC1
compound no.	11	12	13	14	15	16	17	18	19	20
GIV Gai3 FP	99	94	103	nt	98&106	105	100	108	106	nt
HCMV UL50-53 inh	1	nt	-6&-18	-30	11	-29	-13	8	nt	0
Sa growth inh	84	80	nt	106	88&113	90	82	104	106	86
Sa growth inh second temp	95	42	nt	90	87&100	86	72	98	92	87

[21] O=C(NC1CC1)c1cccc(NC(C(=O)N2CCOCC2)c2ccccc2)c1 (stereo unspecified)
[22] O=C(Cn1c(-c2cccs2)cc2ccccc21)NCCCN1CCN(c2cccc(Cl)c2)CC1
[23] CN1CCN(c2ccc(-c3nc(-c4ccccc4)no3)cc2[N+](=O)[O-])CC1
[24] CN(Cc1cccs1)C(=O)[C@H](Cc1ccccc1)NC(=O)c1ccco1
[25] CC(C)(C)c1ccc2c(c1)c1c3n2CCN(CCC#N)C3CCC1 (stereo unspecified)
[26] NC(=O)c1ccc(NC(=O)COC(=O)Cc2cn3ccsc3n2)cc1
[27] COc1ccc(NC(C)C(=O)NC2CCCCC2C)cc1 (stereo unspecified)
[28] CCn1c(=S)sc2nc(C)sc21
[29] CC(C)C(OC(=O)c1ccc(Cl)nc1)C(=O)NC1CCCCC1 (stereo unspecified)
[30] Cc1cccc(C)c1NC(=S)NCCC(=O)O
compound no.	21	22	23	24	25	26	27	28	29	30
GIV Gai3 FP	nt	105	103	nt	102	nt	nt	117	104	106
HCMV UL50-53 inh	-5	nt	-25	-32	nt	-17	-20	-41	-19	-9
Sa growth inh	96	108	106	83	89	90	78	108	97	98
Sa growth inh second temp	94	38	91	90	71	92	88	71	88	87

[31] COc1ccc(NC(=O)Cn2ccn(Cc3ccccc3)c(=O)c2=O)cc1
[32] O=C(CSc1ccccn1)N(C1=CCCCC1)C1CC1
[33] COc1ccc(-c2cc(C(=O)Nc3ccc(F)cc3)c(C(F)(F)F)o2)cc1
[34] C=CCC(N)(CC=C)c1ccncc1
[35] O=C(Nc1cccc(-c2noc(C3CC3)n2)c1)c1ccc2c(c1)OCO2
[36] CCOC(=O)c1ccc(NC(=O)CNC(=O)C2CCCCC2)cc1
[37] CCOc1cccc2sc(NC(=O)c3ccc(S(=O)(=O)N4CCCc5ccccc54)cc3)nc12
[38] Cc1ccc(S(=O)(=O)N2CCC(c3ccncc3)CC2)c(C)c1
[39] CCCOC(=O)Cn1cnc2sc(C)c(C)c2c1=O
[40] CCOC(=O)c1cnn(-c2nnc(-c3ccccc3)c3ccccc23)c1/N=C/N(C)C
compound no.	31	32	33	34	35	36	37	38	39	40
GIV Gai3 FP	98	nt	106	102	103	107	99	99	nt	nt
HCMV UL50-53 inh	-19	-27	-1	1	-1	-13	nt	nt	-3	2
Sa growth inh	100	94	110	82	nt	86	111	105	108	86
Sa growth inh second temp	88	92	90	25	nt	81	88	99	84	96

[41] COC(=O)c1ccc2c(=O)[nH]c(COC(=O)c3oc4ccccc4c3C)nc2c1
[42] Cc1cc(NC(=O)c2sc(Nc3cccc(C(F)(F)F)c3)nc2N)no1
[43] Cc1[nH]c(C)c(S(=O)(=O)N2CCC(C(=O)N3CCCCC3C)CC2)c1C(=O)N1CCCCC1 (stereo unspecified)
[44] O=C(CSc1nc(O)cc(=O)n1C1CCCC1)NC12CC3CC(CC(C3)C1)C2
[45] O=c1[nH]c(=S)[nH]c(O)c1C=NC12CC3CC(CC(C3)C1)C2
[46] Cc1ccc(NC(=O)Cn2nc(-c3ccccc3)nc(Cc3ccccc3)c2=O)cc1
[47] Cc1ccc2cc3cc(C(=O)NCCCN4CC(C)CC(C)C4)oc3nc2c1 (stereo unspecified)
[48] CCOC(=O)c1cccc(NC(=O)N2CC=C(c3c[nH]c4ccccc34)CC2)c1
[49] c1cc2c(cc1CNC1CCCC1)OCO2
[50] O=C(Nc1cccc(C(F)(F)F)c1)c1cc(-c2ccc(Cl)cc2)on1
compound no.	41	42	43	44	45	46	47	48	49	50
GIV Gai3 FP	nt	nt	103	nt	124	101	96	170	102	102
HCMV UL50-53 inh	-10	3	-22	-9	-10	nt	-130	nt	8	-3
Sa growth inh	102	90	nt	114	109	115	91	131	96	106
Sa growth inh second temp	93	86	nt	91	104	92	72	75	96	84

One compound at a time, as listed above. Values in the order: GIV Gai3 FP	HCMV UL50-53 inh	Sa growth inh	Sa growth inh second temp
Cc1ccc2cc3cc(C(=O)NCCCN4CC(C)CC(C)C4)oc3nc2c1 (stereo unspecified) reads 96	-130	91	72
O=C(CSc1nc(O)cc(=O)n1C1CCCC1)NC12CC3CC(CC(C3)C1)C2 reads nt	-9	114	91

The list goes on.
[51] COc1cc(CNC(=O)c2sc3ncccc3c2-n2cccc2)cc(OC)c1OC
[52] COc1ccc(C(CNC(=O)Nc2ccc(C)cc2)N2CCCC2)cc1 (stereo unspecified)
[53] COc1ccc(-c2nc(CCNC(=O)c3ccc(C(C)(C)C)cc3)cs2)cc1
[54] CC1Cc2ccccc2N1C(=O)c1ccc(N2C(=O)C(C)(C)CS2(=O)=O)cc1 (stereo unspecified)
[55] COc1ccc(NC(=O)c2oc3ccccc3c2NC(=O)Cc2coc3c(C)c(C)ccc23)cc1
[56] CC(=O)Nc1cccc(-c2nc(-c3ccccc3)no2)c1
[57] CSC(=CC(=O)c1ccc(F)cc1)SC
[58] O=C(NCC1CCCO1)c1ccc2c(c1)CCN2S(=O)(=O)c1ccc(Cl)cc1 (stereo unspecified)
[59] CC1=NN(c2nc3ccccc3[nH]2)C(=O)C1Cc1ccccc1 (stereo unspecified)
[60] Cc1cc(NC(=O)c2ccc(Cl)c(Cl)c2)ccc1NC(=O)c1ccco1
compound no.	51	52	53	54	55	56	57	58	59	60
GIV Gai3 FP	108	nt	98	106	109	114	104	101	99	101
HCMV UL50-53 inh	nt	-3	-21	-20	11	nt	-50	-14	nt	-9
Sa growth inh	115	101	nt	nt	133	90	97	nt	59	119
Sa growth inh second temp	106	89	nt	nt	85	71	84	nt	67	89

Filtered by structure, those above with an NH in an aromatic ring
[1] CCc1c(C)nc2[nH]nc(NC(=O)C(F)(F)F)n2c1=O
[2] CCCc1nc(C)c2c(=O)[nH]c(-c3cc(S(=O)(=O)N4CCN(CC)CC4)ccc3OCC)nn12
[41] COC(=O)c1ccc2c(=O)[nH]c(COC(=O)c3oc4ccccc4c3C)nc2c1
[43] Cc1[nH]c(C)c(S(=O)(=O)N2CCC(C(=O)N3CCCCC3C)CC2)c1C(=O)N1CCCCC1 (stereo unspecified)
[45] O=c1[nH]c(=S)[nH]c(O)c1C=NC12CC3CC(CC(C3)C1)C2
[48] CCOC(=O)c1cccc(NC(=O)N2CC=C(c3c[nH]c4ccccc34)CC2)c1
[59] CC1=NN(c2nc3ccccc3[nH]2)C(=O)C1Cc1ccccc1 (stereo unspecified)
compound no.	1	2	41	43	45	48	59
GIV Gai3 FP	96	104	nt	103	124	170	99
HCMV UL50-53 inh	-23	-8&-30&19&-84	-10	-22	-10	nt	nt
Sa growth inh	102	92&80&93	102	nt	109	131	59
Sa growth inh second temp	104	94&85&92	93	nt	104	75	67

Continuation.
[61] O=C(O)c1ccc2c(c1)C(=O)N(C1=NCCS1)C2=O
[62] COc1ccc(OC)c(-c2nc(N)sc2N=Nc2cccnc2)c1
[63] O=C(NC1CC1)C1CCN(c2ccc(-c3cccc(F)c3)nn2)CC1
[64] CCOC(=O)c1c(C)n(-c2ccc(C)cc2)c2ccc(OCC(O)CNCc3ccco3)cc12 (stereo unspecified)
[65] Cc1ccccc1S(=O)(=O)N1CCN(c2nc3cc(Br)ccc3n3cccc23)CC1
[66] O=C1CC(c2ccccc2)c2cc3c(cc2N1)OCCO3 (stereo unspecified)
[67] O=C(NCc1ccco1)c1ccc2c(O)c(S(=O)(=O)c3ccccc3)c(=O)[nH]c2c1
[68] C(=C\c1ccccc1)/CNCCSc1nnnn1-c1ccccc1
[69] Cn1c(=O)c2c(nc(Sc3nnc(NC(=O)C(C)(C)C)s3)n2C)n(C)c1=O
[70] N[C@@H](Cc1cc(I)c(Oc2cc(I)c(O)c(I)c2)c(I)c1)C(=O)O
compound no.	61	62	63	64	65	66	67	68	69	70
GIV Gai3 FP	101	nt	100	104	99	101&100	95	118	102	105
HCMV UL50-53 inh	-15	-84	-64	12	-1	-29&9	-25	-6	-11	-58&-30&-5&-49
Sa growth inh	109	97	nt	53	nt	87	103	109	nt	91&92
Sa growth inh second temp	110	95	nt	41	nt	91	83	93	nt	85&86

[71] COc1ccc(-c2noc(CCCn3c(=O)[nH]c4cc5c(cc4c3=O)OCO5)n2)cc1
[72] O=C(COc1ccc(Cl)cc1Cl)Nc1ccc(C(=O)OC2CCCCC2)cc1
[73] COc1cccc(/C=C2/NC(=O)N(c3ccccc3)C2=O)c1
[74] C[C@H](NC(=O)c1ccco1)C(=O)Nc1cc(Cl)ccc1N1CCCC1
[75] CNC(=O)c1c[nH]c2ccc(S(=O)(=O)Nc3cccc(OC)c3)cc2c1=O
[76] Cc1cccc(NC(=O)C2CCCN(c3ccc(-c4ccccc4)nn3)C2)c1 (stereo unspecified)
[77] O=C(/C=C/c1cccc(N2C(=O)C3C4C=CC(C4)C3C2=O)c1)NCc1ccco1 (stereo unspecified)
[78] Cc1cc(=O)[nH]c(SCC(=O)Nc2ccc(N3CCCC3)cc2)c1C#N
[79] COCCNC(=O)C(=O)NCC(c1cccnc1)N1CCN(c2ccccc2)CC1 (stereo unspecified)
[80] Cc1cc(-c2ccc(S(=O)(=O)NCCN3CCCC3)s2)on1
[81] Cc1cc(CN2CCc3ccccc3C2)cs1
[82] CCCCC(CC)CNC(=O)CN1C(=O)CSc2ccc(S(=O)(=O)N3CCOCC3)cc21 (stereo unspecified)
[83] CCN(Cc1cc(=O)n2ccsc2n1)c1ccccc1
compound no.	71	72	73	74	75	76	77	78	79	80	81	82	83
GIV Gai3 FP	103	100	103	nt	108	98	104	nt	103	104	100	104	100
HCMV UL50-53 inh	1	-19	nt	-20	3	-36	-20	-10	-18	-68	nt	nt	-26
Sa growth inh	nt	105	87	88	94	nt	97	87	83	98	74	115	nt
Sa growth inh second temp	nt	96	89	78	86	nt	99	58	80	93	86	82	nt
